Screening data (PubChem BioAssay)
Autofluor counter: flagged as autofluorescent in microsphere protease counterscreen; compound autofluorescence counterscreen, microsphere flow cytometry; stronger effect = higher value; AID 624483; fluorescence intensity (no concentration beside the values); 3.1% of 360,000 active;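 active = at least 3 SD above the mean of all compounds, about 16000 in these data; inconclusive = too few beads counted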;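 also: 100 nL of 1 mM stock went into each well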
RN4220 kill: kills Staphylococcus aureus RN4220. S. aureus RN4220 growth, OD600, 16 h. inhibition, % (no concentration beside the values). 0.33% of 330,000 active;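 active = z-score of -3 or lower and OD600 up to 0.18 on both plates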;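 also: plate controls were untreated cells for no effect and reference antibiotic for full effect; stock transfer was 100 nL into about 80 µL; one replicate is shown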
PrP 5UTR inh: suppresses PrP 5' UTR mRNA reporter expression; cell-based PrP 5' UTR mRNA reporter, plate reader; inhibition, % (test concentration not listed); 0.35% of 340,000 active; AID 488862;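 active = every replicate at 50% or more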;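 also: 0 = median of the neutral control wells; tested in H4 reporter cells; numbers are from one replicate; inactives centre near -14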
Sa ugtP lethal: kills S. aureus RN4220 lacking UgtP | 0.54% of 330,000 active | S. aureus RN4220 ugtP deletion, OD600 growth, 16 h; some inactives read as strong as hits | growth inhibition, % (test concentration not listed);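 active = z-score under -3 and OD600 up to 0.15 on both plates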;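 also: plate controls were untreated wells for no effect and antibiotic for full effect; wells of about 80 µL received 100 nL stock; the first replicate is given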
BJeLR viability: BJeLR cell viability loss. inhibition, % (concentration not given with the values). BJeLR (HRASV12) viability, CellTiter-Glo ATP luminescence, 48 h; reference of the scale not given here. 0.17% of 300,000 active. AID 1554;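 active = replicate mean above 50%; inconclusive = above 50% but judged a plate artefact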;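 also: 50 nL library stock added to about 25 µL; numbers are from one replicate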
Mtb hypoxia inh: reduces hypoxia-regulated biosensor signal in M. tuberculosis; M. tuberculosis hypoxia-regulated fluorescent reporter, fluorescence; fluorescence inhibition, % (concentration not given with the values); 0.1% of 300,000 active; AID 1159583;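 active = 35 to 45% if threefold the growth effect, above 45% if 1.5-fold the growth effect; inactive = the rest, general growth blockers included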;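 also: wells of about 50 µL received 100 nL stock; 0% = vehicle wells and 100% = reference inhibitor wells; whole bacteria with a GFP reporter of the hypoxia response; strong numbers were not always called active; many hits fall short of the cut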
Mtb hypoxia inh growth: recorded beside Mtb hypoxia inh, whose call it bears; growth inhibition, %; measured here: M. tuberculosis growth (absorbance);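 0% = vehicle and 100% = reference antibiotic; read after six days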
* marks the source's active call; other numbers are inactive results.

What do the screens show for `Cn1c(Cc2ccccc2)nnc1SCC(=O)Nc1cccc(S(=O)(=O)NC2=NCCCCC2)c1`?
Autofluor counter: 5871; RN4220 kill: 0.3; PrP 5UTR inh: -32.0; Sa ugtP lethal: 0.6; BJeLR viability: 2.2; Mtb hypoxia inh: -0.9; Mtb hypoxia inh growth: 14.0

What do the screens show for `CCCCN(CCCC)C1=Nc2ccccc2N/C1=C(/C#N)C(=O)OCC`?
Autofluor counter: 2940; RN4220 kill: -16.6; PrP 5UTR inh: -6.2; Sa ugtP lethal: -1.3; BJeLR viability: 2.9

What do the screens show for `Cc1ccc(NS(=O)(=O)c2cccc(C(=O)N3CCCC(C)C3)c2)cc1` (configuration not stated)?
Autofluor counter: 4245; RN4220 kill: 4.0; PrP 5UTR inh: -59.4; Sa ugtP lethal: 5.0; BJeLR viability: -2.2; Mtb hypoxia inh: -1.1; Mtb hypoxia inh growth: -4.9

How did COc1cc2c(cc1OC)CN(C(=S)NC(=O)c1ccccc1)CC2 do in these assays?
Autofluor counter: 4592; RN4220 kill: 0.4; PrP 5UTR inh: -15.0; Sa ugtP lethal: -7.4; BJeLR viability: 3.8; Mtb hypoxia inh: -2.7; Mtb hypoxia inh growth: 14.6

Results for CC1=NN(C(C#N)c2ccccc2)C(C)(C)C1 (configuration not stated) ?
Autofluor counter: 2718; RN4220 kill: 2.8; PrP 5UTR inh: -18.4; Sa ugtP lethal: -6.5; BJeLR viability: 3.6; Mtb hypoxia inh: -4.6; Mtb hypoxia inh growth: 4.7

How did COc1ccccc1CCNS(=O)(=O)c1c(C)n(C)c(=O)n(C)c1=O do in these assays?
Autofluor counter: 4522; RN4220 kill: 6.0; PrP 5UTR inh: 6.5; Sa ugtP lethal: 9.9; BJeLR viability: -0.3; Mtb hypoxia inh: 4.0; Mtb hypoxia inh growth: -0.2

Results for CC(C)(O)C#Cc1ccc(CN2CCN(C3CCCCC3)C(CCO)C2)cc1 (configuration not stated) ?
Autofluor counter: 2307; RN4220 kill: 1.8; PrP 5UTR inh: -16.5; Sa ugtP lethal: 14.4; BJeLR viability: 9.4; Mtb hypoxia inh: 9.0; Mtb hypoxia inh growth: 2.2

How did CCn1nc(C)c(CN2CCC(C(=O)Nc3cccc(-c4cccc(F)c4)c3)CC2)c1C do in these assays?
Autofluor counter: 5567; RN4220 kill: -3.1; PrP 5UTR inh: 2.2; Sa ugtP lethal: -13.7; BJeLR viability: 10.4; Mtb hypoxia inh: -1.7; Mtb hypoxia inh growth: -7.5

What do the screens show for `CCOC(=O)c1oc2cc(OCC(N)=O)ccc2c(=O)c1-c1ccc(OC)c(OC)c1`?
Autofluor counter: 11734; RN4220 kill: 2.3; PrP 5UTR inh: -14.7; Sa ugtP lethal: 3.5; BJeLR viability: -2.8; Mtb hypoxia inh: 0.2; Mtb hypoxia inh growth: -2.4

Results for C=CCNC(=S)NNC(=O)c1ccccc1 ?
Autofluor counter: 4488; RN4220 kill: 2.2; PrP 5UTR inh: -19.4; Sa ugtP lethal: 2.9; BJeLR viability: -12.6; Mtb hypoxia inh: 7.6; Mtb hypoxia inh growth: 6.4

Results for O=C(NCCc1ccc(Cl)cc1)C1CCN(S(=O)(=O)N2CCC3(CC2)OCCO3)CC1 ?
Autofluor counter: 6354; RN4220 kill: 4.5; PrP 5UTR inh: -22.5; Sa ugtP lethal: -0.5; BJeLR viability: 0.6; Mtb hypoxia inh: 9.6; Mtb hypoxia inh growth: 12.2

How did COc1ccc(CNC(=O)CCc2c(C)nc3cc(-c4ccccc4OC)nn3c2C)cc1 do in these assays?
Autofluor counter: 3412; RN4220 kill: 3.1; PrP 5UTR inh: -8.0; Sa ugtP lethal: 2.5; BJeLR viability: -2.0; Mtb hypoxia inh: 3.2; Mtb hypoxia inh growth: 8.3

What do the screens show for `O=C(c1cc2sccc2n1Cc1ccccc1)N1CCN(c2nc3ccccc3s2)CC1`?
Autofluor counter: 4648; RN4220 kill: -8.5; PrP 5UTR inh: -17.8; Sa ugtP lethal: -5.7; BJeLR viability: 8.0; Mtb hypoxia inh: -0.4; Mtb hypoxia inh growth: 0.0

How did Cc1nc(C(=O)N2CCc3c([nH]c4ccccc34)C2c2cc(F)ccc2F)cs1 (configuration not stated) do in these assays?
Autofluor counter: 4786; RN4220 kill: 5.2; PrP 5UTR inh: -32.7; Sa ugtP lethal: -3.2; BJeLR viability: 0.5; Mtb hypoxia inh: 11.0; Mtb hypoxia inh growth: 7.2

How did C=Cn1c(C(=O)O)cc(CC)c1-c1ccccc1 do in these assays?
Autofluor counter: 9739; RN4220 kill: 10.8; PrP 5UTR inh: -18.1; Sa ugtP lethal: 11.2; BJeLR viability: 5.2; Mtb hypoxia inh: 3.2; Mtb hypoxia inh growth: 5.3

Results for Cc1ccccc1-c1nnc(SCC(=O)N(C)C2CCS(=O)(=O)C2)n1C (configuration not stated) ?
Autofluor counter: 3044; RN4220 kill: 3.1; PrP 5UTR inh: -4.6; Sa ugtP lethal: 7.6

What do the screens show for `CCOC(=O)c1c(NC(=O)Cn2ccsc2=N)sc(C)c1C`?
Autofluor counter: 3899; RN4220 kill: -0.4; PrP 5UTR inh: -15.3; Sa ugtP lethal: -11.3; BJeLR viability: 3.5; Mtb hypoxia inh: 8.7; Mtb hypoxia inh growth: 5.9

How did CCOC(=O)N1CCN(C(=O)c2ccc(CN(c3ccc(C)c(C)c3)S(C)(=O)=O)cc2)CC1 do in these assays?
Autofluor counter: 3659; RN4220 kill: -3.2; PrP 5UTR inh: -0.9; Sa ugtP lethal: -1.1; BJeLR viability: 3.3; Mtb hypoxia inh: -3.0; Mtb hypoxia inh growth: 7.8

Results for Cc1cccc(NC(=O)CSc2nnc([C@@H]3CCCN3C(=O)OC(C)(C)C)o2)c1C ?
Autofluor counter: 5912; RN4220 kill: -0.3; PrP 5UTR inh: -25.8; Sa ugtP lethal: -5.9; BJeLR viability: 1.6

Results for COc1ccc(CN2CCCC(C(=O)N3CCCCC3)C2)c(OC)c1 (configuration not stated) ?
Autofluor counter: 3846; RN4220 kill: 3.3; PrP 5UTR inh: -7.8; Sa ugtP lethal: 16.7; BJeLR viability: -6.2; Mtb hypoxia inh: 5.3; Mtb hypoxia inh growth: 6.1

What do the screens show for `O=C(Nc1nc2ccccc2[nH]1)C1CCN(C(=O)c2ccc(F)cc2)CC1`?
Autofluor counter: inconclusive; RN4220 kill: 4.6; PrP 5UTR inh: 1.6; Sa ugtP lethal: 10.4; BJeLR viability: -2.2; Mtb hypoxia inh: -0.2; Mtb hypoxia inh growth: 2.0

Results for Cc1cc(C)cc(NC(=S)N2CCN(c3ncccn3)CC2)c1 ?
Autofluor counter: 2066; PrP 5UTR inh: -9.0; BJeLR viability: 5.4

How did O=C(CN1CCCc2ccccc21)Nc1ccc(F)cc1[N+](=O)[O-] do in these assays?
Autofluor counter: 3452; RN4220 kill: 4.8; PrP 5UTR inh: -30.3; Sa ugtP lethal: 4.2; BJeLR viability: 13.2; Mtb hypoxia inh: 0.7; Mtb hypoxia inh growth: 7.4

How did Cc1ccc(NC(=S)NN=C2CCCc3c(C)cc(C)cc32)cc1 do in these assays?
RN4220 kill: 6.2; Sa ugtP lethal: 1.2; Mtb hypoxia inh: 2.0; Mtb hypoxia inh growth: 4.9

Results for Cc1sc2nc(SCC(=O)OC(C)C)n(C)c(=O)c2c1C ?
Autofluor counter: 11032; PrP 5UTR inh: -15.5; BJeLR viability: 5.9

How did COC(=O)c1ccc(NC(=O)CSc2ccc(-c3ccccn3)nn2)cc1 do in these assays?
Autofluor counter: inconclusive; RN4220 kill: 1.9; PrP 5UTR inh: -22.2; Sa ugtP lethal: 3.6; BJeLR viability: -23.2; Mtb hypoxia inh: 8.9; Mtb hypoxia inh growth: -3.4

How did O=C1C=C(c2ccc3c(c2)OCO3)CCC1 do in these assays?
Autofluor counter: 3739; RN4220 kill: 8.9; PrP 5UTR inh: 2.0; Sa ugtP lethal: 9.3; BJeLR viability: -4.3; Mtb hypoxia inh: 20.2; Mtb hypoxia inh growth: 10.5

How did CCn1nnnc1SCC(=O)Nc1ccc2c(c1)OCCO2 do in these assays?
Autofluor counter: 4280; RN4220 kill: 1.9; PrP 5UTR inh: -86.2; Sa ugtP lethal: 5.2; BJeLR viability: -1.5

Results for Cc1ccccc1NC(=O)CCS(=O)(=O)c1cccc2nonc12 ?
Autofluor counter: 4990; RN4220 kill: 3.8; PrP 5UTR inh: -17.7; Sa ugtP lethal: 14.6; BJeLR viability: 4.3; Mtb hypoxia inh: 11.8; Mtb hypoxia inh growth: 15.6

What do the screens show for `O=C(OCCN1C(=O)c2ccccc2C1=O)c1cnccn1`?
Autofluor counter: 3131; RN4220 kill: 5.6; PrP 5UTR inh: -2.8; Sa ugtP lethal: 12.8; BJeLR viability: 0.8; Mtb hypoxia inh: 11.3; Mtb hypoxia inh growth: 12.9

Results for O=C(c1ccc([N+](=O)[O-])s1)N1CCCc2ccccc21 ?
Autofluor counter: 5190; RN4220 kill: 14.3; PrP 5UTR inh: -14.8; Sa ugtP lethal: 19.5; BJeLR viability: -12.7; Mtb hypoxia inh: 4.9; Mtb hypoxia inh growth: 3.1

What do the screens show for `C[C@H](CO)N1C[C@H](C)[C@@H](CN(C)C(=O)Nc2ccc(C(F)(F)F)cc2)Oc2ccc(NC(=O)C3CC3)cc2C1=O`?
Autofluor counter: 3667; RN4220 kill: 0.1; PrP 5UTR inh: -2.2; Sa ugtP lethal: 6.1; Mtb hypoxia inh: 0.2; Mtb hypoxia inh growth: 10.7

What do the screens show for `O=C1CCN(C(=O)c2cccs2)c2ccccc21`?
Autofluor counter: 2180; RN4220 kill: 3.6; PrP 5UTR inh: -9.3; Sa ugtP lethal: 4.6; BJeLR viability: 3.6; Mtb hypoxia inh: 4.2; Mtb hypoxia inh growth: 2.7

How did Cc1ccc(S(=O)(=O)NN=Cc2ccc3c(c2)OCO3)cc1 do in these assays?
RN4220 kill: 5.4; Sa ugtP lethal: 6.7; Mtb hypoxia inh: 3.7; Mtb hypoxia inh growth: 4.7

How did COc1ccc(CC(=O)Nc2ccc(S(=O)(=O)Nc3ncccn3)cc2)cc1 do in these assays?
Autofluor counter: 4779; RN4220 kill: 0.7; PrP 5UTR inh: -19.4; Sa ugtP lethal: 4.2; BJeLR viability: -3.1

How did CC(NC(=O)c1nc[nH]c1C(=O)NC(C)C(=O)OCc1ccccc1)C(=O)OCc1ccccc1 (configuration not stated) do in these assays?
RN4220 kill: 7.5; Sa ugtP lethal: -5.4; Mtb hypoxia inh: 4.4; Mtb hypoxia inh growth: 3.1

What do the screens show for `C/C(=N\NC(=O)c1cc(C2CC2)nc2ccccc12)c1ccc(C)s1`?
Autofluor counter: 3415; PrP 5UTR inh: -11.1; BJeLR viability: -12.4

How did CC(C)c1ccccc1NC(=S)NCCCn1ccnc1 do in these assays?
Autofluor counter: 4587; RN4220 kill: 1.6; PrP 5UTR inh: -31.6; Sa ugtP lethal: 5.3; BJeLR viability: -0.9; Mtb hypoxia inh: 8.2; Mtb hypoxia inh growth: 11.2

Results for Nc1ccc(C(=O)OCC(=O)NC2CC2)cc1[N+](=O)[O-] ?
Autofluor counter: 4804; RN4220 kill: 2.2; PrP 5UTR inh: -20.7; Sa ugtP lethal: 11.9; BJeLR viability: -16.1; Mtb hypoxia inh: -8.8; Mtb hypoxia inh growth: -7.9

Results for CSc1nc2ccccc2n1CC(=O)N1CCCCC1 ?
RN4220 kill: 2.6; PrP 5UTR inh: -12.6; Sa ugtP lethal: 5.0; BJeLR viability: 2.6; Mtb hypoxia inh: 5.4; Mtb hypoxia inh growth: 8.3

What do the screens show for `COC(=O)CCCN1C(=O)NC(c2ccc(-c3ccccc3)cc2)C(C(=O)OCc2ccccc2)=C1C` (configuration not stated)?
Autofluor counter: 4079; RN4220 kill: 5.8; PrP 5UTR inh: -0.1; Sa ugtP lethal: 9.6; Mtb hypoxia inh: -4.3; Mtb hypoxia inh growth: 2.0

How did Cc1cccc(-c2nnc(SCCC(=O)N3CCOCC3)o2)c1 do in these assays?
Autofluor counter: 2120; RN4220 kill: 6.5; PrP 5UTR inh: -2.6; Sa ugtP lethal: 6.5; BJeLR viability: 1.8; Mtb hypoxia inh: 23.9; Mtb hypoxia inh growth: 11.5
